High-throughput results (PubChem)
A647 autofl – qHTS Assay for Spectroscopic Profiling in A647 Spectral Region; Compound fluorescence, A647 channel (570/671 nm), Tris buffer; max dye-equivalent concentration, M; 59,000 tested, under 10 active; active means above 1 µM dye equivalent; inconclusive means 0.1 to 1 µM; inactive means 0.1 µM or less;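 also: values scaled relative to a standard on each plate; highest value over a series up to 38 µM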
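Spectral profiling of library compounds in pH 8.0 Tris: 15 min room-temperature incubation, single ex/em pair (570/671 nm), response normalized to Alexa 647 equivalents.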
AID923 – qHTS Assay for Allosteric/Competitive Inhibitors of Caspase-1: Spectroscopic Profiling in AFC Spectral Region. AID 923, 2007. 1.1% of 75,000 active. Potency, µM (top dose mostly 57.5 µM), for the others: top-dose fluorescence increase, usual class: activators. compound fluorescence, AFC spectral region (405/520 nm); almost no hit is shown here; active = well fitted activation curve with a large enough effect; inconclusive = small, poorly fitted or top-dose-only effect;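 also: potency is read from the fitted curve at half-maximal effect; 0% is about no effect; scaled to a free AFC standard on each plate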
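Titrations up to 57 uM read every 20 sec for 3 min (405/520 nm) with 50 nM caspase 1 and 5 uM Ac-WEHD-AFC, pH 7.5 HEPES buffer. Fluorescence-vs-time intercept gave baseline, scaled against on-plate AFC standard.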
A488 fluor – qHTS Assay for Spectroscopic Profiling in A488 Spectral Region; compound autofluorescence, A488 spectral region, dye equivalency; hits give high values; 0.1% of 59,000 active; max dye equivalency, M; AID 591, 2007; active = above 10 nM dye equivalent; inconclusive = 1 to 10 nM; inactive = 1 nM or less; about half of its hits are not listed in these tables;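 also: highest value over a series up to 38 µM; compound alone in buffer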
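Intrinsic compound fluorescence is measured in 100 mM Tris buffer at pH 8.0 following 15 min incubation at room temperature. Intensities at 480 nm excitation/540 nm emission are calibrated to an on-plate A488 concentration series, giving dye-equivalent concentrations.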
TSHR ag – qHTS Assay for Agonists of the Thyroid Stimulating Hormone Receptor. Potency, µM (series often up to 57.1 µM), inactives show at the top dose activation, hits mostly activators. HEK293-CNG-TSHR cells (CNG channel as cAMP sensor), membrane potential dye, cAMP. 0.48% of 73,000 active. Thyrotropin receptor (Homo sapiens), P16473; active = well fitted activation curve of enough size with the parental cells flat; inconclusive = any curve in the parental cells; inactive = parental cells flat and receptor cells flat or falling; also: potency is read from the fitted curve at half-maximal effect; % of control where 0% means no effect; weak receptor curves with flat parental cells got no call and are not listed
Target sequence (P16473 whole entry, looked up): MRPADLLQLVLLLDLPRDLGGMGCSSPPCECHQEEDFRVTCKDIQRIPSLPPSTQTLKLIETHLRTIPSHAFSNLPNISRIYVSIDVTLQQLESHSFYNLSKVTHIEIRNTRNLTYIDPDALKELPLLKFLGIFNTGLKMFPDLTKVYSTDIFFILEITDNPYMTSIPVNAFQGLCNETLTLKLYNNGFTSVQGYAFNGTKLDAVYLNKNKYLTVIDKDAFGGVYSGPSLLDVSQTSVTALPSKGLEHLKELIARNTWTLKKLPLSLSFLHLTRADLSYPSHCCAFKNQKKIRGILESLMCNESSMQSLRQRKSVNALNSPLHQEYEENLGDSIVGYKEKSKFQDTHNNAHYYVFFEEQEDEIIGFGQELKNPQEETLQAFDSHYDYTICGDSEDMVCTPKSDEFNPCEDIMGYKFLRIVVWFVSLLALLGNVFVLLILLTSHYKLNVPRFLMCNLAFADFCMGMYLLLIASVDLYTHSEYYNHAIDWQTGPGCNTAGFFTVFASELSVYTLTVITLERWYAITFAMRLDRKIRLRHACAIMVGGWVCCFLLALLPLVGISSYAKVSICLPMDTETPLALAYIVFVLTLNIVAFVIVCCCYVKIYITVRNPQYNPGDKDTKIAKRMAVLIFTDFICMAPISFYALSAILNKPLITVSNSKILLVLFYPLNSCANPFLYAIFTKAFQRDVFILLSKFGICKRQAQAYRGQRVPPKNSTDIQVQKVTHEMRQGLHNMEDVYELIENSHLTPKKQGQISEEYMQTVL
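HEK 293 cells stably expressing TSHR and a modified CNG channel, with CNG-only parental cells as counterscreen, were preloaded 60 min at room temperature with membrane potential dye containing 100 uM RO 20-1724. Compound exposure was 30 min, and depolarization was read as fluorescence at 590 nm.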
Resorufin autofl – qHTS Assay for Spectroscopic Profiling in Resorufin Spectral Region | Compound fluorescence, resorufin region 547/598 nm, buffer; hits give high values | max dye-equivalent concentration, M | 0.04% of 59,000 active | AID 588, 2007; active = above 10 nM dye equivalent; inconclusive = 1 to 10 nM; inactive = 1 nM or less; a few of its hits are not listed in these tables; also: highest value over a series up to 38 µM
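Compounds in 100 mM Tris buffer, pH 8.0, incubated 15 min at room temperature, then read with 547 nm excitation and 598 nm emission filters. Fluorescence was converted to dye-equivalent concentration using an on-plate six-point resorufin standard curve.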
* marks the source's active call; other numbers are inactive results; i = inactive; ? = inconclusive; nt = no result given; [ ] = another dose, or the depositor's remark. A portion of the library, so the mix of outcomes need not match the whole.

smiles	A488 fluor	Resorufin autofl	TSHR ag	A647 autofl	AID923
COc1ccc(N2C(=O)CSC2c2ccc3c(c2)OCO3)c(OC)c1 (centres undefined)	i	i	13%	2.1e-09	0.1%
CCc1cc2cc3c(cc2nc1SCC(=O)Nc1cc(C)on1)OCO3	i	i	?	2.1e-08	-0.9%
CCOC(=O)c1c(NC(C)=O)sc2c(O)cccc12	i	i	21%	2.3e-09	0.0%
COc1ccc(CN2CC(C(=O)NCc3ccccn3)CC2=O)cc1 (centres undefined)	i	i	0%	1e-09	0.3%
CCOC(=O)c1ccc(NC(=O)CC2C(=O)N(c3ccc(F)cc3)C(=O)N2CCCOC)cc1 (centres undefined)	i	i	13%	1.2e-09	0.3%
CCN(Cc1cc2ccc(C)cc2[nH]c1=O)C(=O)c1cccnc1	i	i	5%	1.2e-09	-1.6%
Cc1[nH]c(=O)[nH]c(=O)c1S(=O)(=O)NCCc1ccc(S(N)(=O)=O)cc1	i	i	-4%[11.4 µM]	1.8e-08	1.2%
CCOc1ccc2[nH]c(=O)c(CN(Cc3cccs3)Cc3nnnn3C(C)(C)CC)cc2c1	i	i	?	2.7e-09	0.6%
CC1(C)CC(O)C(C)(C)N1O (centres undefined)	i	i	-1%	4.1e-08	1.8%
CSc1nnc(NC(=O)c2ccc(C)c(S(=O)(=O)N3CCOCC3)c2)s1	i	i	0%	1.6e-08	1.6%
c1cc2c(cc1C1=Nn3c(nnc3C3CCCCC3)SC1)OCO2	i	i	nt	3.3e-08	nt
COc1cccc(-n2c(SCC(=O)NC(C)(C)C)nnc2-c2ccoc2C)c1	i	i	-1%	7.2e-08	-0.5%
CCCCOc1cc(C)nc(NCc2ccccc2)n1	i	i	?	1e-09	-1.3%
Cc1ccc(N(C(=O)CNC(=O)c2ccco2)C(C(=O)NCC2CCCO2)c2ccccc2)cc1 (centres undefined)	i	i	5%	1.5e-08	0.6%
O=C(CCN1C(=O)c2ccccc2S1(=O)=O)NCc1ccco1	i	i	-3%	4.4e-09	-2.2%
O=C(COc1ccc(=O)n(-c2ccccc2)n1)Nc1ccccc1	nt	nt	-5%	nt	-1.3%
Cc1cc2ccccc2c(=O)n1CC(=O)N(C)c1ccc(F)cc1	i	i	9%	2.3e-09	2.4%
N#Cc1nc(-c2cccs2)oc1NCc1ccccc1Cl	i	i	nt	1.3e-08	nt
Cn1c(=O)n2n(c1=O)[C@H]1[C@H](O)[C@H]3O[C@@H]3/C(=N/OCc3ccccc3)[C@@H]1CC2	nt	nt	3%[11.4 µM]	nt	-0.9%[11.5 µM]
CCCCCSc1nc(O)cc(=O)[nH]1	i	i	nt	3.1e-08	nt

Three consecutive records already listed:
smiles	A488 fluor	Resorufin autofl	TSHR ag	A647 autofl	AID923
COc1ccc(N2C(=O)CSC2c2ccc3c(c2)OCO3)c(OC)c1 (centres undefined)	i	i	13%	2.1e-09	0.1%
CCc1cc2cc3c(cc2nc1SCC(=O)Nc1cc(C)on1)OCO3	i	i	?	2.1e-08	-0.9%
CCOC(=O)c1c(NC(C)=O)sc2c(O)cccc12	i	i	21%	2.3e-09	0.0%

Later entries
smiles	A488 fluor	Resorufin autofl	TSHR ag	A647 autofl	AID923
O=c1cc(CSc2ccc(Cl)cc2)nc2nc[nH]n12	i	i	?	2e-08	-0.2%
CCCCSc1nc2c(cnn2-c2ccc(Cl)cc2)c(=O)[nH]1	i	i	?	2.2e-08	0.1%
Cc1ccc(CN2C(=O)CCC2C(=O)NCCN(CC(C)C)CC(C)C)cc1 (centres undefined)	i	i	4%	1e-09	-0.3%
COc1ccccc1CNC(=O)C1CC(=O)N(C2CCCC2)C1 (centres undefined)	i	i	2%	6.3e-09	-0.5%
Cc1nn(-c2ccccc2)c(C)c1C(=O)OC/C(O)=C(\C#N)c1nc2ccccc2[nH]1	i	i	0%	2e-09	2.0%
COc1ccccc1N1CCN(C(=O)c2cn(-c3ccccc3)nc2-c2cccnc2)CC1	i	i	6%	2.7e-08	0.9%
O=C(Nc1cccnc1)C1OCCc2ccccc21 (centres undefined)	i	i	4%	2.5e-08	-1.2%
COc1ccc(C(=O)Nc2cccnc2)cc1C(=O)Nc1cccnc1	i	i	nt	1.5e-09	nt
CCOc1ccc(N(CC(=O)NCC(C)C)S(C)(=O)=O)cc1	nt	nt	-3%	nt	4.0%
Cc1cc(C)c(S(=O)(=O)Nc2ccc(O)cc2)c(C)c1	nt	nt	?	nt	2.7%
O=C(CN(Cc1ccc(F)cc1)C(=O)c1ccco1)NCc1ccc(F)cc1	i	i	?	4.1e-08	0.7%
CCOc1ccc2nc(N3CCC(C(=O)N4CCN(C5CCCCC5)CC4)CC3)sc2c1	nt	nt	-4%	nt	1.7%
COC(=O)c1nc2nc(C)cc(C(F)(F)F)n2n1	i	i	-3%	1.8e-09	-0.9%
NS(=O)(=O)c1ccc(N=Nc2nc3[nH]c(=O)[nH]c(=O)c3[nH]2)cc1	i	i	2%[11.4 µM]	2.9e-08	-6.4%[11.5 µM]
CCC(C)(C(=O)NC1CCCCC1)N(Cc1ccco1)C(=O)CNC(=O)c1ccccc1 (centres undefined)	i	i	?	5.5e-09	-0.6%
COc1ccccc1CN1C(=O)[C@@H]2C(CCC(N)=O)NC3(C(=O)Nc4c3ccc(Cl)c4C)[C@@H]2C1=O (some centres undefined)	i	i	14%	2.1e-08	-1.2%
COc1ccc(OC)cc1	nt	nt	-7%	nt	-0.1%
O=C(CCCCCn1c(=O)[nH]c2ccsc2c1=O)N1CCCCC1	i	i	-1%	1e-09	1.9%
O=C1c2ccccc2C(=O)C1c1ccc2ccccc2n1	i	i	-7%	3.6e-08	-0.2%
CN(C)CCCn1cnc2cc(Cl)c(Cl)cc21	i	i	-2%[11.4 µM]	1e-09	2.8%[11.5 µM]
CCn1ncc(NC(=O)Nc2cccc(C(F)(F)F)c2)c1C(N)=O	i	i	-5%	3.5e-08	2.5%
COc1ccc(-c2nc(Cn3c(SCc4cccc(F)c4)nc4ccncc43)c(C)o2)cc1OC	nt	nt	-43%[inhibitor]	nt	-1.9%
Cc1ccc(-c2nc(C#N)c(NCc3ccco3)o2)cc1	i	i	-11%	4.2e-09	-2.2%
CCC(c1nnnn1Cc1ccc(F)cc1)N1CCN(C2CCCCC2)CC1 (centres undefined)	i	i	?	1.1e-08	1.6%
Cc1cnc(CNc2ncncc2-c2cccnc2)cn1	i	i	6%	1e-09	0.3%
c1cn2cc(CSC3CCCCC3)nc2s1	i	i	?	1.1e-08	-0.5%
COc1ccc(NC(=O)CCc2ccccc2)cc1NC(=O)c1ccco1	i	i	?	1.4e-09	4.8%
COc1ccc(CCNC(=O)COC(=O)c2ccco2)cc1OC	i	i	0%	1e-09	1.2%
C/C(CCN1CCCCc2nc(C)c(C)cc21)=N\OC[C@@H](O)COCc1ccco1	nt	nt	5%[11.4 µM]	nt	-1.1%[11.5 µM]
CN(C=O)CP(=O)(O)CCN1CCCC1=O	i	i	nt	3.6e-08	-0.4%
O=C(COc1c(F)c(F)cc(F)c1F)NC(=O)NC1CCCC1	i	i	-3%	5.6e-09	-0.6%
COc1ccccc1N=c1scc(-c2ccc3c(c2)NC(=O)CO3)n1CC1CCCO1 (centres undefined)	i	i	13%	2.1e-08	-1.5%
O=c1[nH]c(=S)[nH]c2c1CN(CCCN1CCOCC1)CN2	i	i	4%[11.4 µM]	4.1e-08	4.6%[11.5 µM]
C=C(C)C(O)/C=C/CCCCCCC (centres undefined)	nt	nt	4%[11.4 µM]	nt	-1.4%[11.5 µM]
COc1c(Br)cc2c(C)c(C(=O)O)oc2c1Br	nt	nt	20%	nt	-2.1%
O=S(=O)(NCC1CCCO1)c1ccc(Oc2ccccc2)cc1 (centres undefined)	i	i	23%	1e-09	-1.6%
CC(C)Cn1c(-c2ccc(F)cc2)n[nH]c1=S	i	i	nt	1e-09	2.2%
CCCn1c(N2CCN(CC(=O)c3c(C)n(C)c4ccccc34)CC2)nc2c1c(=O)[nH]c(=O)n2C	i	i	13%	2.6e-08	-0.6%
Cc1ccccc1-c1cc(Nc2ccccc2)ncn1	i	i	?	5.2e-09	0.2%
COc1ccccc1N1CCN(C2CCN(C(=O)c3cccs3)CC2)CC1	i	i	nt	1.3e-09	nt
O=C(CSc1nnnn1-c1ccccc1)N1CCc2ccccc2C1	i	i	?	3e-08	1.1%
COc1ccc(N2C(=O)C3CCCN3C2c2cccc(C)c2)cc1Cl (centres undefined)	i	i	12%	1e-09	6.2%
C=CCn1c(SCc2ccccc2C#N)nnc1-c1cc(Br)ccc1O	i	i	?	6e-09	0.6%
c1ccc2c(c1)oc1c(Nc3ccc4c(c3)OCO4)ncnc12	i	i	-4%	6.7e-09	1.7%
C=CCn1c(SCC(N)=O)nnc1-c1cccc(Br)c1	i	i	2%	3.2e-08	1.7%
COC(=O)c1ccccc1NC(=O)c1noc2c1CC(C(C)(C)C)CC2 (centres undefined)	i	i	?	1.8e-08	-1.7%
CNc1cc(-c2ccccc2C(F)(F)F)ncn1	i	i	1%	1.6e-08	2.7%
c1nc(NCCN2CCOCC2)c2c3c(sc2n1)CCCCC3	i	i	?	2.5e-09	-0.9%
CCOC(=O)c1c(C)n(O)c2ccc(Cl)cc2c1=O	nt	nt	?	nt	21%
C=CCN1C(=O)CC(C(=O)NC)SC1=Nc1ccc(C(=O)OCC)cc1 (centres undefined)	i	i	nt	1.4e-08	nt
O=C1CCCc2c1cc(C(=O)NCc1ccco1)c(=O)n2-c1ccccc1	i	i	4%	1.2e-08	-0.7%
C[C@@]12CC(=O)[C@@H]3[C@@H](CCC4=CC(=O)CC[C@]43C)[C@@H]1CC=C2CC(=O)O	i	i	1%[11.4 µM]	4.8e-08	-0.1%[11.5 µM]
Cc1cccc(-c2c3c(=O)n(C)c(=O)n(C)c3cn2CC2CCCO2)c1 (centres undefined)	i	i	-3%	1.1e-08	0.5%
CCOC(=O)C1(C)NC(c2ccc(N(C)C)cc2)C2C(=O)N(c3ccc(OC)cc3)C(=O)C21 (centres undefined)	i	i	1%	5.4e-08	0.1%
c1cncc(-c2nc(-n3ccnc3)c3ccccc3n2)c1	i	i	12%	1.4e-08	2.3%
O=C(OCC1CC(c2ccccn2)=NO1)c1ccc(Br)cc1 (centres undefined)	i	i	12%	3.3e-08	-0.5%
CCOc1ccc(-c2noc(COC)n2)cc1OC	i	i	-2%	1e-09	-0.2%
CCn1c(SCC(=O)Nc2ccc(C(C)=O)cc2)nc2ccccc21	i	i	-8%	2.9e-08	-1.5%
Cc1ccc(S(=O)(=O)N(CC(=O)N2CCC(C(N)=O)CC2)Cc2ccc(F)cc2)cc1	nt	nt	4%	nt	-3.7%
Cn1cnnc1SCC(=O)Nc1ccccc1C(=O)NC1CCCC1	i	i	21%	1e-09	-1.2%
COc1ccc(-c2csc(NC(=O)c3cc(C)on3)c2C#N)cc1OC	i	i	5%	1.1e-09	5.5%
O=C(Nc1ccccc1)NC1(C(=O)N2CCN(C(=O)c3ccco3)CC2)CCCCC1	i	i	13%	8.1e-09	-1.3%
CCOC(=O)Cn1c(-c2ccccn2)nc2ccccc21	nt	nt	26%	nt	1.3%
